Marburg entry inh: inhibitors of Marburg virus binding or cell entry; Marburg virus pseudotyped entry inhibition, cell reporter; control for the full effect not named in the record; about a third of the inactives were read at about 46 µM; AID 540276; Potency, µM (doses to about 37.8 µM), inactives show top-dose activity change, negative = inhibition, usual class: inhibitors; 1.8% of 300,000 active; active = well fitted inhibition curve with a large enough effect; inconclusive = small, poorly fitted or top-dose-only effect, or effect the other way; inactive = flat fitted curve, though single readings scatter; tested in HEK293 cells; about a fifth of its hits are not listed in these tables; also: luciferase read-out
RE007 growth inh: less growth of the S. pombe RE007 Vpr strain; S. pombe RE007 Vpr strain, BacTiter-Glo ATP luminescence, 24 h; control for the full effect not named in the record; Potency, µM (top dose mostly 92.2 µM), for the others: top-dose activity change, negative = less growth; 0.21% of 360,000 active; AID 651644; active = well fitted falling curve with a large enough effect; inconclusive = small, poorly fitted or top-dose-only effect; inactive = no such curve, though single readings can be large or run the other way;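 also: nearly all actives have a fitted effect of over 50% in size; the assay follows cell death caused by Vpr and the record does not say whether a fall means rescue or toxicity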
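Fission yeast RE007 carrying one integrated HIV-1 vpr copy, seeded at OD 0.01 in PMG+AL medium with 23 nL pinned compound. Grown 24 h at 30 degrees; viability read by BacTiter-Glo luminescence after 5 min.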
StopGo reporter: lowers the luciferase signal of an FMDV 2A StopGo reporter. human cells with a luciferase reporter of 2A StopGo recoding; control for the full effect not named in the record. Potency, µM (series often up to 57.9 µM), inactives show at the highest dose signal change, negative = less light. 1.2% of 410,000 active. AID 1159524; active = well fitted falling curve with a large enough effect; inconclusive = small, poorly fitted or top-dose-only effect; inactive = no such curve, though single readings can be large or run the other way; tested in HEK293T cells; also: nearly all actives have a fitted effect of over 45% in size; luciferase light after 4 h
Starred values were filed as active, the others as inactive; u = inconclusive; & = joins results of further samples; [ ] = remark or other dose. % is scaled to controls: 0 for no effect and ±100 for the full control effect; potency is read from the fitted curve at half-maximal effect.

[1] CCN1C(=O)N[C@@H](c2ccco2)C(C(=O)OC)=C1C
[2] COCOCCn1cc(CN2CCS(=O)(=O)N(Cc3ccc(-c4ccc(F)nc4)cc3)C(C)C2=O)nn1 (stereo not drawn)
[3] O=S1(=O)CC(N2CCCCC2)CN1CCc1ccccc1 (stereo not drawn)
[4] CC(C)C1C(=O)N(Cc2cn(CCC3OCCO3)nn2)CCS(=O)(=O)N1Cc1ccc(-c2ccccc2Cl)cc1 (stereo not drawn)
[5] CN(CCc1ccccc1)C(=O)c1ccc(NC(=O)Cc2ccc(NC(=O)C3CCCN(C(=O)C4CCC4)C3)cc2)cc1 (stereo not drawn)
[6] COC(=O)C1=C(C)N(CC2CC2)C(=O)N[C@H]1c1ccccc1
[7] CCCCCCCCNCCS(=O)(=O)NCc1ccccc1OC
[8] O=C(NCC(c1cccs1)N1CCOCC1)c1cc(S(=O)(=O)N2CCOCC2)ccc1Cl (stereo not drawn)

| assay / compound | 1 | 2 | 3 | 4 | 5 | 6 | 7 | 8 |
| --- | --- | --- | --- | --- | --- | --- | --- | --- |
| RE007 growth inh | -3% | -22% | -9% | 19% | 9% | 13% | -26% | 3% |
| StopGo reporter | -13% | -28% | 3% | u | u | 2% | -26% | -1% |
| Marburg entry inh | u | u | u | u | -6% | -5%&-5%[14.2 µM] | u | -5% |

Reprinted: entries 3 to 8
[3] O=S1(=O)CC(N2CCCCC2)CN1CCc1ccccc1 (stereo not drawn)
[4] CC(C)C1C(=O)N(Cc2cn(CCC3OCCO3)nn2)CCS(=O)(=O)N1Cc1ccc(-c2ccccc2Cl)cc1 (stereo not drawn)
[5] CN(CCc1ccccc1)C(=O)c1ccc(NC(=O)Cc2ccc(NC(=O)C3CCCN(C(=O)C4CCC4)C3)cc2)cc1 (stereo not drawn)
[6] COC(=O)C1=C(C)N(CC2CC2)C(=O)N[C@H]1c1ccccc1
[7] CCCCCCCCNCCS(=O)(=O)NCc1ccccc1OC
[8] O=C(NCC(c1cccs1)N1CCOCC1)c1cc(S(=O)(=O)N2CCOCC2)ccc1Cl (stereo not drawn)

| assay / compound | 3 | 4 | 5 | 6 | 7 | 8 |
| --- | --- | --- | --- | --- | --- | --- |
| RE007 growth inh | -9% | 19% | 9% | 13% | -26% | 3% |
| StopGo reporter | 3% | u | u | 2% | -26% | -1% |
| Marburg entry inh | u | u | -6% | -5%&-5%[14.2 µM] | u | -5% |

More structures follow:
[9] Cc1ccccc1C(=O)N1[C@@H](C(C)C)COc2cc(Br)ccc2S1(=O)=O
[10] COC(=O)[C@H]1[C@@H](C)N(Cc2ccccc2)C(=O)N[C@H]1c1cccc(C(F)(F)F)c1
[11] CN(c1cc2c(c3c1ccn3C)C1CCC2C1)C1CCCCC1 (stereo not drawn)
[12] CC(C)(C)OC(=O)N1CCCC(C(=O)Nc2cccc(C(=O)NCCCCc3ccccc3)c2)C1 (stereo not drawn)
[13] CCCCn1c(N)c(N(CCOC)C(=O)CCN2C(=O)C3CC=CCC3C2=O)c(=O)[nH]c1=O (stereo not drawn)
[14] O=C(c1cccc(S(=O)(=O)NCc2ccccc2)c1)N1CCN(c2ccccc2Cl)CC1
[15] COc1ccc([C@H]2C[C@H](n3cc(-c4ccc(F)cc4)nn3)[C@@H](O)CN2Cc2cccs2)cc1
[16] CCN(C(=O)CSc1nnc(NCCOC)s1)c1c(N)n(Cc2ccccc2)c(=O)[nH]c1=O

| assay / compound | 9 | 10 | 11 | 12 | 13 | 14 | 15 | 16 |
| --- | --- | --- | --- | --- | --- | --- | --- | --- |
| RE007 growth inh | 0% | 6% | u | 5% | -4% | -9% | -25% | 5% |
| StopGo reporter | 40µM* | -28% | -24% | u | -17% | 0% | -15% | -5% |
| Marburg entry inh | 10µM* | 25%&25%[14.2 µM] | u | u | 1% | 5% | u | 1% |

An excerpt from above, reduced to StopGo reporter and RE007 growth inh:
entry | SMILES | StopGo reporter | RE007 growth inh
8 | O=C(NCC(c1cccs1)N1CCOCC1)c1cc(S(=O)(=O)N2CCOCC2)ccc1Cl (stereo not drawn) | -1% | 3%
9 | Cc1ccccc1C(=O)N1[C@@H](C(C)C)COc2cc(Br)ccc2S1(=O)=O | 40µM* | 0%
10 | COC(=O)[C@H]1[C@@H](C)N(Cc2ccccc2)C(=O)N[C@H]1c1cccc(C(F)(F)F)c1 | -28% | 6%
11 | CN(c1cc2c(c3c1ccn3C)C1CCC2C1)C1CCCCC1 (stereo not drawn) | -24% | u
12 | CC(C)(C)OC(=O)N1CCCC(C(=O)Nc2cccc(C(=O)NCCCCc3ccccc3)c2)C1 (stereo not drawn) | u | 5%

Other compounds
[17] Cn1ccc2c(-c3ccc(C(F)(F)F)cc3)cc3c(c21)C1CCC3O1 (stereo not drawn)
[18] Cc1ccc([C@H]2C[C@H](O)[C@@H](n3cc(-c4ccc(F)cc4)nn3)CN2C(=O)C2CCCCC2)cc1
[19] CC(C)C(=O)Nc1cccc(COc2cccc(CN(Cc3ccccc3)C(=O)OC(C)(C)C)c2)c1
[20] O=S1(=O)c2c(F)cccc2OC(COCc2ccccc2)CN1C1CCCC1 (stereo not drawn)
[21] CCCCN(CCCC)Cc1cc(=O)oc2ccc3ccccc3c12
[22] Cc1ccc([C@H]2C[C@@H](n3cc(-c4ccc(F)cc4)nn3)[C@H](O)CN2C(=O)C2CCCCC2)cc1
[23] COC/C=C/C1=CC2=CC(=O)C(C)(OC(=O)c3cnc4ccccc4n3)C(=O)C2=CN1CC1CC1 (stereo not drawn)
[24] CCN1C(=O)N[C@H](c2ccc(Br)cc2)C(C(=O)OC)=C1C
[25] Cc1ccc([C@H]2C[C@H](O)[C@@H](n3cc(-c4ccc(F)cc4)nn3)CN2C(=O)c2cccs2)cc1

| assay / compound | 17 | 18 | 19 | 20 | 21 | 22 | 23 | 24 | 25 |
| --- | --- | --- | --- | --- | --- | --- | --- | --- | --- |
| RE007 growth inh | -28% | 7% | -10% | 11% | -10% | -4% | -11% | 9% | 15% |
| StopGo reporter | -26% | -32% | 0% | u | -11% | 16% | -18% | -3% | -19% |
| Marburg entry inh | u | u | -2% | u | u | u | 58%&58%[14.2 µM] | u | u |

Screening data as filed in PubChem.

Not all compounds are listed, so the mix of outcomes need not match the whole.
